Source: PubChem BioAssay
D2 potentiator = human D2 receptor positive allosteric modulation. P14416. DiscoveRx D2 beta-arrestin cells, luminescence, 90 min; 100% = 57 uM dopamine signal. potentiation, % (test concentration not listed). actives 0.23% (n = 360,000); active = potentiation of 50% or more; inconclusive = 30% to 50%; inactive = 30% or less;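 further: compound concentration not given in the record; tested on top of an EC20 dose of dopamine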
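PathHunter beta-arrestin assay in DiscoveRx D2 cells. Compounds were added with an EC20 of dopamine (50 nM final) for 90 min at 37 deg C. Luminescence was read 1 h after detection reagent, with 57 uM dopamine as the EC100 control.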
gsp antagonist = antagonists of gsp mutant (McCune-Albright syndrome); gsp-mutant cells, cAMP HTRF, 30 min; control for the full effect not named in the record; Potency, µM (highest dose often 76.9 µM), for the others: at the top dose activity change, negative = inhibition, most hits filed as inhibitors; actives 0.4% (n = 340,000); AID 624288; active = falling curve of any shape with a large fitted effect; inconclusive = falling curve, mostly with a smaller effect; inactive = flat or rising curve; cell line not stated here;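 further: intracellular cAMP measured with PDE inhibitor Ro 20-1724 present during compound exposure; potency means the concentration at half of the fitted maximal effect; on the % scale 0 is the no-effect control and ±100 the full control effect; nearly all actives have a fitted effect of over 65% in size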
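HTRF cAMP measurement after 30 min RT detection following 30 min, 37C compound treatment alongside […] (added as 300 uM solution) in G418-selected cells seeded at 2000/well and grown 16–24 h.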
ClpP mod = qHTS Assay for Activators of ClpP | actives 1.9% (n = 340,000) | ATP-dependent Clp protease proteolytic subunit (Bacillus subtilis (strain 168)), P80244 | Potency, µM (top dose mostly 57.5 µM), inactives show at the highest dose activity change, negative = active | purified B. subtilis ClpP, FRET peptide cleavage, 20 min; active = well fitted falling curve with a large enough effect; inconclusive = small, poorly fitted or top-dose-only effect; inactive = no such curve, though single readings can be large or run the other way; further: potency means the concentration at half of the fitted maximal effect; the source files actives as falling curves though it sought activators and does not explain the sign; nearly all actives have a fitted effect of over 65% in size; many hits overshoot -100%
Target sequence (P80244 whole entry, looked up): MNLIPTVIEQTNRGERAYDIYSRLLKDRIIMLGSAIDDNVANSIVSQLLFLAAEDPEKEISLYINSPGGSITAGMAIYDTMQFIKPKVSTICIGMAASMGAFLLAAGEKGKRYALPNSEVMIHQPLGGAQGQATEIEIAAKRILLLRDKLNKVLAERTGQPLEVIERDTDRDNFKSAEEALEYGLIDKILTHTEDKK
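ClpP 10 microg/mL final, pH 8 Tris/KCl buffer with BSA, glycerol, Tween-20; compound pinned in; FRET-FV substrate; RT 20 min; Ex320/Em430; ΔFRET vs ADEP 5.8 microM, DMSO, no enzyme.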
gsp ag = gsp mutant agonism; gsp mutant cells, cAMP HTRF, 30 min; control for the full effect not named in the record; Potency, µM (series often up to 76.9 µM), inactives show at the top dose activation (cAMP increase), usual class: activators; actives 0.13% (n = 340,000); AID 624287; active = well fitted activation curve with a large enough effect; inconclusive = small, poorly fitted or top-dose-only effect, or another doubt; inactive = no such curve, though single readings can be large or run the other way; cell line not stated here;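 further: phosphodiesterase inhibitor Ro 20-1724 added with compounds to block cAMP breakdown; potency means the concentration at half of the fitted maximal effect; nearly all actives have a fitted effect of over 60% in size; about a fifth of the inactives were tested at one dose only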
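Cells in DMEM/10% FBS with G418 were pretreated with compounds in DMSO plus […] (300 uM stock) for 30 min at 37C. cAMP was measured by HTRF (cAMP-d2 plus anti-cAMP antibody-K) after 30 min at room temperature.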
Sfp PPTase inh = Sfp phosphopantetheinyl transferase inhibition. Q9F4F7. Biochemical Sfp PPTase activity, qHTS. actives 3.5% (n = 310,000). Potency, µM, for the others: max response, negative = inhibition, most hits filed as inhibitors; active means well fitted inhibition curve with a large enough effect; inconclusive means small, poorly fitted or top-dose-only effect, or another doubt; inactive means no such curve, though single readings can be large or run the other way;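 further: the enzyme is Sfp with the accession as filed and its product quenches rhodamine fluorescence; potency means the concentration at half of the fitted maximal effect; 0% = enzyme reaction without inhibitor and -100% = no enzyme wells; top concentration of the series not given in the record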
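After 15 min at room temperature with compound, 15 nM Sfp received 5 uM rhodamine-CoA plus 12.5 uM BHQ-2-ybbR (50 mM Hepes pH 7.6, 10 mM MgCl2). Rate came from the fluorescence difference over 30 min, ex 525/em 598 nm.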
TRPV1 potentiator = potentiators of human vanilloid receptor 1 (TRPV1). potentiation, % at 8.33 µM. TRPV1-expressing cells, Fluo-8 calcium influx, capsaicin EC20 potentiation; host cell line not named in the record; control for the full effect not named in the record. AID 540277. Q8NER1. actives 0.02% (n = 320,000); active means potentiation above 80%; inconclusive means 30% to 80%; inactive means below 30%; further: 0% is about no effect
Target sequence (Q8NER1 whole entry, looked up): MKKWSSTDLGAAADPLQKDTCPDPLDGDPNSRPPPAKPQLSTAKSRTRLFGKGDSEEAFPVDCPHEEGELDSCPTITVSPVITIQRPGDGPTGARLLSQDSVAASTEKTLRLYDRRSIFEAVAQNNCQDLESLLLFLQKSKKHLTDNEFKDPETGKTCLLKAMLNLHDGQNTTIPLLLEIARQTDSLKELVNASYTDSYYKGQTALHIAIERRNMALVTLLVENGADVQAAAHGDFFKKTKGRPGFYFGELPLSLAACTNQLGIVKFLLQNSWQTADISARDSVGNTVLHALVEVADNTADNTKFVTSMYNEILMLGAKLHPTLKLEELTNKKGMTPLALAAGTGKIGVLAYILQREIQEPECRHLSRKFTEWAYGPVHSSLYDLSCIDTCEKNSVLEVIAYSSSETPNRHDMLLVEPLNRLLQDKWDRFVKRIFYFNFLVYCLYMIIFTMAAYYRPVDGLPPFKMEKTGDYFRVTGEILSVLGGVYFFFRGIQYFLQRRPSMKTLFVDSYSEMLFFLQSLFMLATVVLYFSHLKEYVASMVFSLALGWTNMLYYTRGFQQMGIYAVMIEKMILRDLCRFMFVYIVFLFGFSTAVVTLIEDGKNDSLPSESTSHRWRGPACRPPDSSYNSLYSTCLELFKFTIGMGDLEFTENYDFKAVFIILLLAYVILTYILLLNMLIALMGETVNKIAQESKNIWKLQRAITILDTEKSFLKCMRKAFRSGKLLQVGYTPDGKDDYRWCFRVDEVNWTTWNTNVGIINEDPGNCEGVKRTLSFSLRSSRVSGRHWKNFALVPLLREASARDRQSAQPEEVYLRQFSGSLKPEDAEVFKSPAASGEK
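TRPV1-expressing cells were cultured overnight at 35.5C and loaded with Fluo-8 calcium dye for 40 to 90 min at room temperature. After a 10 s baseline, compound was added and calcium influx was read kinetically for 3 min (ex 480/em 520 nm).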
Menin-MLL FL inh = displaces fluorescein MLL peptide from human menin | Fluorescence polarization, fluorescein-MLL peptide displacement from menin | FP activity change, % at 61.4 µM | 290,000 tested, under 10 active; inconclusive = falling polarisation curve, or a change in total fluorescence; inactive = total fluorescence flat and polarisation flat or rising; no compound was filed as active; the % refers to the polarisation; negative = inhibition;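 further: % of control where 0% means no effect; inhibitors lower the polarisation; unlabelled MLL peptide was the positive control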
An asterisk follows results filed as active; ? = inconclusive; . = no result given; [ ] = remark or other dose.

SMILES	D2 potentiator	gsp antagonist	ClpP mod	gsp ag	Sfp PPTase inh	TRPV1 potentiator	Menin-MLL FL inh
O=C(CNC(=O)c1sc2ccccc2c1Cl)Nc1ccccc1F	-8.9	8.5%	-3.7%	21.4%[15.4 µM]	.	25.5	.
COCCn1c(N/N=C(C)/C=C/c2ccccc2)nc2c1c(=O)[nH]c(=O)n2C	.	.	.	.	39.8µM*	4.0	4.7
CCOC(=O)C1(Cc2cccc(OC)c2)CCN(C2CCOCC2)CC1	-18.9	0.0%	.	-4.9%	-0.1%	2.6	4.2
COc1cc(C(=O)N2CCCc3ccccc32)cc(OC)c1OC	-3.1	4.3%	-0.8%	11.7%	-5.2%	6.7	3.9
C#CCNC(=O)C1=C[C@H](c2coc3ccccc3c2=O)C[C@H](OCc2ccc(CO)cc2)O1	0.2	-6.6%	-0.1%	?	0.2%	-14.3	-3.7
COc1ccc(CNC(=O)CN(C(=O)c2csnn2)c2ccc(F)cc2)cc1	-1.5	6.0%	.	-33.4%[inhibitor]	11.8%	20.5	2.3
Cn1c(SCCOc2cccc(Cl)c2)nnc1-c1ccncc1	-13.3	-12.0%	1.6%	-4.8%	7.0%	21.0	1.8
COc1ccc(CCNC(=O)C23CN(Cc4ccccc4)CC2C(c2cccc([N+](=O)[O-])c2)=NO3)cc1 (stereo unspecified)	-4.0	-5.3%	0.0%	?	0.7%	-7.0	-2.0
Cc1onc(-c2c(Cl)cccc2Cl)c1C(=O)Nc1c(C)n(C)n(-c2ccccc2)c1=O	?	-14.8%	-1.4%	-10.6%	4.7%	-5.1	1.9
Cc1ccc(S(=O)(=O)N2CCN(C(=O)COC(=O)CNC(=O)c3ccc(Cl)cc3Cl)CC2)cc1	-14.4	-1.7%	2.0%	?	.	-4.3	.
CCOc1ccccc1CNC(=O)CNC(=O)c1cccs1	-12.4	-1.0%	0.1%	2.7%	8.6%	-20.7	0.2
CC1=Nn2c(nnc2-c2ccccc2Cl)SC1	-1.4	13.4%	-1.0%	-0.2%	-14.6%	-2.5	-0.5
Cn1c(O)c(N=NC(=N)N)c2ccccc21	-9.3	-7.2%	-0.6%	?	-1.6%	.	-0.3
CS(=O)(=O)N(Cc1ccccc1)c1ccc(C(=O)Nc2ccccc2C(=O)O)cc1	6.9	?	-5.0%	4.3%	25.3%	0.1	-7.2
Cc1cc(=O)oc2cc(NC(=O)COc3ccccc3[N+](=O)[O-])ccc12	-16.5	6.4%	-15.1%	-0.1%	.	4.7	.
Cc1ccc(C(=O)Oc2ccc3ccc(=O)oc3c2)cc1	-3.7	-1.7%	2.4%	-14.9%	8.1%	14.0	3.8
O=C(CCc1[nH]c2ccccc2c1Sc1ccccc1)N(CCO)CCO	2.3	7.6%	-0.2%	-4.0%[15.4 µM]	-15.9%	9.6	-1.3
COc1ccc(NC(=O)Cc2c(Sc3ccccc3)c3ccccc3n2C)cc1	-5.6	-2.6%	6.3%	4.1%	-16.4%	-2.3	0.3
CC(NS(=O)(=O)c1ccc(Cl)cc1)C(=O)N1CCOCC1 (stereo unspecified)	-3.8	7.0%	.	17.8%[15.4 µM]	16.3%	-3.6	0.1
COc1cc(/C=N/n2c(COc3ccccc3)n[nH]c2=S)cc(Br)c1O	-13.1	-3.6%	0.3%	-15.1%[15.4 µM]	?	4.6	-0.1
COc1cc(-c2[nH]ncc2CN(C)Cc2nonc2C)cc(OC)c1OC	-9.2	4.9%	0.3%	32.7%	15.7%	12.4	-1.6
CCOC(=O)c1c(NC(=O)COC(=O)CCS(=O)(=O)c2ccc(C)cc2)sc(C)c1C	-4.6	?	0.1%	-37.6%[inhibitor]	-7.4%	-8.1	-0.8
CCOC(=O)NCc1ccc(S(=O)(=O)Nc2c(C)cccc2C)cc1	7.1	3.0%	-0.6%	-18.3%	17.6%	-3.5	0.8
Oc1c(CN2CCOCC2)cc(CN2CCOCC2)cc1CN1CCOCC1	-0.2	-9.7%	1.3%	-24.2%	.	.	.
CN(C(=O)COC(=O)CCc1c[nH]c2ccccc12)c1ccccc1	-6.2	0.4%	-4.5%	?	.	-1.0	.
COc1ccccc1NC(=O)N(Cc1ccco1)Cc1cc2ccc(C)c(C)c2[nH]c1=O	-19.9	2.1%	-16.6%	0.5%	10.8%	-2.6	3.6
CC(C)CCNC(=O)c1cc([N+](=O)[O-])ccc1N1CCOCC1	-20.4	6.5%	-2.5%	-3.3%	?	-3.6	3.0
CN1CCN(C(=O)C2CCCN(S(=O)(=O)c3ccccc3)C2)CC1 (stereo unspecified)	-3.0	15.4%	-1.5%	-23.6%	?	-0.3	.
O=C1CCCN1c1ccc(C(=O)N(Cc2nnc(-c3ccccc3Cl)o2)C2CC2)cc1	-4.8	-0.6%	-7.7%	13.0%	.	6.1	.
COc1ccc(NC(=O)C2CC3CCC2C3)c(OC)c1 (stereo unspecified)	-29.3	1.1%	.	?	.	.	.

Exported comma-delimited: part of the list above.
Compound,D2 potentiator,gsp antagonist,ClpP mod,gsp ag,Sfp PPTase inh,TRPV1 potentiator,Menin-MLL FL inh
Cc1ccc(C(=O)Oc2ccc3ccc(=O)oc3c2)cc1,-3.7,-1.7%,2.4%,-14.9%,8.1%,14.0,3.8
O=C(CCc1[nH]c2ccccc2c1Sc1ccccc1)N(CCO)CCO,2.3,7.6%,-0.2%,-4.0%[15.4 µM],-15.9%,9.6,-1.3
COc1ccc(NC(=O)Cc2c(Sc3ccccc3)c3ccccc3n2C)cc1,-5.6,-2.6%,6.3%,4.1%,-16.4%,-2.3,0.3
CC(NS(=O)(=O)c1ccc(Cl)cc1)C(=O)N1CCOCC1 (stereo unspecified),-3.8,7.0%,.,17.8%[15.4 µM],16.3%,-3.6,0.1
COc1cc(/C=N/n2c(COc3ccccc3)n[nH]c2=S)cc(Br)c1O,-13.1,-3.6%,0.3%,-15.1%[15.4 µM],?,4.6,-0.1
COc1cc(-c2[nH]ncc2CN(C)Cc2nonc2C)cc(OC)c1OC,-9.2,4.9%,0.3%,32.7%,15.7%,12.4,-1.6
CCOC(=O)c1c(NC(=O)COC(=O)CCS(=O)(=O)c2ccc(C)cc2)sc(C)c1C,-4.6,?,0.1%,-37.6%[inhibitor],-7.4%,-8.1,-0.8
CCOC(=O)NCc1ccc(S(=O)(=O)Nc2c(C)cccc2C)cc1,7.1,3.0%,-0.6%,-18.3%,17.6%,-3.5,0.8

Carrying on:
SMILES	D2 potentiator	gsp antagonist	ClpP mod	gsp ag	Sfp PPTase inh	TRPV1 potentiator	Menin-MLL FL inh
Cc1nnc(NC(=O)CCNC(=O)c2ccccc2Cl)s1	-2.1	16.2%	.	-1.1%[15.4 µM]	12.2%	-7.5	1.1
COc1ccc(C(C(=O)OCCN(C)C)c2ccccc2)cc1 (stereo unspecified)	-29.8	6.4%	0.1%	-11.0%	5.7%	0.3	-0.7
Cc1ccc(OCC(=O)NCCNC(=O)c2cnccn2)cc1C	-0.1	3.7%	.	?	16.5%	11.2	-10.2
Cc1ccsc1C(=O)N1CCCC(CO)(Cc2ccccc2F)C1 (stereo unspecified)	-6.7	-0.3%	.	1.9%[15.4 µM]	6.7%	-8.8	.
CCOC(=O)CNC(=O)C(Cc1ccccc1)NC(=O)OCc1ccccc1 (stereo unspecified)	-3.4	-9.4%	-4.6%	-2.5%	16.6%	-17.7	-4.8
CC(=O)c1cc(C#N)c(SCc2ccccn2)nc1C	0.1	-3.7%	.	5.1%[15.4 µM]	0.4%	-12.4	-0.7
COc1ccc(-n2c(=O)c3ccccc3n(CC(=O)NC3CCCCC3)c2=O)cc1OC	-3.6	8.0%	.	4.3%[15.4 µM]	3.6%	5.7	2.3
COc1ccccc1CNC(=O)C1CCC(=O)N(CCCc2ccccc2)C1 (stereo unspecified)	-5.2	7.6%	-0.3%	-4.6%	17.1%	-5.6	3.5
Cc1cc(C)cc(NC(=S)N(CCCN2CCN(C)CC2)Cc2cccs2)c1	0.5	19.2%	.	1.9%[15.4 µM]	-20.2%	-25.9	4.8
CCOC(=O)c1cnn(C(=O)c2ccccc2)c1N	-0.8	-1.6%	-0.9%	-15.7%	2.2%	-29.1	1.7
CCC1(CC)Cc2ccccc2-c2nc3ccccc3c(=O)n21	28.2	?	-1.3%	3.3%	-10.6%	-8.3	0.9
O=C(NC(=S)N1CCN(C(c2ccccc2)c2ccccc2)CC1)c1ccc(S(=O)(=O)N2CCOCC2)cc1	-17.7	2.6%	0.8%	-3.5%	20.1%	3.9	7.9
Cc1cc(C)nc(SCc2nnc(SCC(=O)N3CCOCC3)o2)n1	14.1	2.0%	0.8%	21.2%	3.6%	3.5	2.0
COc1cc2ccccc2cc1C(=O)Nc1nccs1	-9.1	-23.0%	-5.7%	19.3%	-4.9%	-12.0	-4.4
CC1=C(C(=O)OCc2ccccc2)C(c2ccoc2)C(C#N)=C(N)O1 (stereo unspecified)	-12.6	-38.9%	-0.9%	2.3%	-56.4%	10.0	?
O=C(Oc1ccc(OC(=O)N2CCOCC2)cc1)c1ccccc1	-8.1	11.3%	-0.2%	6.4%	3.1%	-5.3	4.1
COc1cc(C(=O)NCC2(N3CCCCC3)CCCCC2)ccc1OCC(=O)N1CCOCC1	-11.8	14.0%	-1.4%	?	17.0%	0.0	0.9
Cc1cccnc1N(C(=O)Nc1ccccc1)C1=NCC(C)(C)S1	-1.4	8.9%	-0.5%	0.0%	-2.3%	24.2	1.1
Nc1nc(SCC(=O)c2ccc([N+](=O)[O-])cc2)n[nH]1	2.4	-2.4%	-0.7%	-21.5%	31.6µM*	6.0	0.6
C#Cc1ccc([C@@H]2C=C(C(=O)OCC=C)O[C@H](OCCCCO)C2)cc1	6.6	-16.1%	0.4%	.	1.7%	-5.8	-2.2
CCN(CC(=O)Nc1ccc2c(c1)OCCO2)C(=O)C(C)Oc1ccc(Cl)cc1 (stereo unspecified)	-7.9	-3.0%	.	16.0%[15.4 µM]	.	1.8	.
O=C(Nc1nccs1)c1ccccn1	6.7	-0.1%	-0.2%	-17.8%	79.4µM*	-3.3	-8.1
Cn1c(SCC(=O)Nc2ccccc2F)nnc1-c1ccc(S(=O)(=O)N2CCOCC2)cc1	-3.1	0.4%	-15.6%	18.6%	6.2%	2.9	2.0

Outcome played no part in choosing rows (roughly 5.1% active in at least one column).
